PMP22 txn: PMP22 gene transcription modulation. S16 Pmp22-F2sN Schwann cells (luciferase reporters placed in the Pmp22 gene), FLuc/NLuc coincidence luminescence, 24 h. Potency, µM (titrated, usually from 57.5 µM), inactives show at the top dose activity change, negative = inhibition, most hits filed as inhibitors. actives 2% (n = 43,000). AID 1508649; active = clear falling dose curves in both reporters; inconclusive = both reporters move, but less clearly or upward; inactive = either reporter flat; the % is the NLuc reporter signal; also: % is scaled to controls: 0 for no effect and ±100 for the full control effect; some results filed as inactive show a strong effect at the top dose
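Rat S16 Pmp22-F2sN cells, 500-1,000/well in phenol red-free DMEM + 10% FBS, compound-treated 24 h (37C, 5% CO2). Luminescence: FLuc read, Stop&Glo added, NLuc read.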
HTT promoter inh: inhibits huntingtin promoter activity. HEK293 HTT promoter firefly luciferase reporter (activity 0% = vehicle and -100% = no light), 24 h. Potency, µM (top dose mostly 57.5 µM), inactives show at the top dose activity change, negative = inhibition, most hits filed as inhibitors. actives 0.93% (n = 48,000); active = well fitted inhibition curve with a large enough effect; inconclusive = small, poorly fitted or top-dose-only effect; inactive = no such curve, though single readings can be large or run the other way; also: nearly all actives have a fitted effect of over 50% in size
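HEK293 cells carrying firefly luciferase reporters were seeded at 2,500 per well in Opti-MEM and cultured for 24 h. They were then treated with compounds at up to 57.5 uM final for 24 h at 37 degrees C before Dual-Glo luminescence readout.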
* hit, by the source's call; ? = inconclusive; . = no result given; & = joins results of further samples; [ ] = remark or other dose. Potency is read from the fitted curve at half-maximal effect.

A first look (7 entries):
Results follow in this order: PMP22 txn	HTT promoter inh
1) C[C@]12CC[C@H]3[C@@H](CCC4=CC(=O)CC[C@@]43C)[C@H]1CC[C@H]2OC(=O)CCC1CCCC1
→ .	-3%
2) Cc1ccc(-n2c(/C=C/c3ccccc3)nc3ccccc3c2=O)cc1C
→ ?	-22%
3) C[C@H]1C(=O)O[C@@H]2CCN3CC=C(COC(=O)[C@](C)(O)[C@]1(C)O)[C@H]23
→ .	-1%
4) CC(=O)OCC1=C(C(=O)O)N2C(=O)[C@@H](N)[C@H]2SC1
→ .	-7%[25.2 µM]
5) Cc1cccc(C)c1NC1=NCCCS1
→ .	-4%
6) Cc1oc(-c2ccccc2Cl)nc1CN1C(=O)CN=C(c2ccccc2)c2cc(Cl)ccc21
→ ?	-23%
7) O=C(COc1cccc(Cl)c1)N1CCN(CCc2ccncc2)CC1
→ -42%	-9%

The listing, from the start:
Results follow in this order: PMP22 txn	HTT promoter inh
1) C[C@]12CC[C@H]3[C@@H](CCC4=CC(=O)CC[C@@]43C)[C@H]1CC[C@H]2OC(=O)CCC1CCCC1
→ .	-3%
2) Cc1ccc(-n2c(/C=C/c3ccccc3)nc3ccccc3c2=O)cc1C
→ ?	-22%
3) C[C@H]1C(=O)O[C@@H]2CCN3CC=C(COC(=O)[C@](C)(O)[C@]1(C)O)[C@H]23
→ .	-1%
4) CC(=O)OCC1=C(C(=O)O)N2C(=O)[C@@H](N)[C@H]2SC1
→ .	-7%[25.2 µM]
5) Cc1cccc(C)c1NC1=NCCCS1
→ .	-4%
6) Cc1oc(-c2ccccc2Cl)nc1CN1C(=O)CN=C(c2ccccc2)c2cc(Cl)ccc21
→ ?	-23%
7) O=C(COc1cccc(Cl)c1)N1CCN(CCc2ccncc2)CC1
→ -42%	-9%
8) C#C[C@]1(O)CC[C@H]2[C@@H]3CCC4=CC(=O)CC[C@]4(C)[C@H]3CC[C@@]21C
→ .	-9%
9) C=CCON=C(C[C@H]1O[C@@H]2O[C@]3(C)CC[C@@H]4[C@H](C)CC[C@@H]([C@H]1C)[C@@]24OO3)[C@H]1O[C@@H]2O[C@]3(C)CC[C@H]4[C@H](C)CC[C@@H]([C@@H]1C)[C@@]24OO3
→ .	?
10) C=CCOC(Cn1ccnc1)c1ccc(Cl)cc1Cl (stereo not drawn)
→ .	-23%
11) CCN(Cc1ccc(Cl)nc1)/C(=C/[N+](=O)[O-])NC
→ .	-1%
12) COc1ccc(C(c2c(O)c3ccccc3oc2=O)c2c(C)n(C)n(-c3ccccc3)c2=O)cc1 (stereo not drawn)
→ -6%	-17%
13) CC(Cc1ccccc1)N(C)Cc1ccco1 (stereo not drawn)
→ .	11%
14) Clc1ccc(COC(Cn2ccnc2)c2ccc(Cl)cc2Cl)cc1 (stereo not drawn)
→ .	-8%&-27%
15) C[C@]12CC[C@H]3[C@@H](CC[C@@]45O[C@H]4C(O)=C(C#N)C[C@]35C)[C@H]1CC[C@H]2O
→ .	10%
16) C[C@@H]1CC[C@H]2[C@@H](C)C(=O)O[C@@H]3O[C@@]4(C)CC[C@H]1[C@]32OO4
→ .	-16%
17) Cc1ccc(-n2c(/C=C/c3ccc(Br)s3)nc3ccccc3c2=O)cc1C
→ -11%	-15%
18) NCc1cccnc1
→ .	-2%
19) CCOc1ccccc1NC(=O)c1cccn(Cc2ccccc2C)c1=O
→ ?	-10%
20) COc1ccc(NC(=O)CN2C(=O)CN=C(c3ccccc3)c3ccccc32)c(OC)c1
→ -1%	-5%
21) COc1ccc(C)cc1NC(=O)c1cccn(Cc2ccccc2Cl)c1=O
→ ?	-6%
22) OCCCBr
→ .	12%[116 µM]
23) Cn1c(=O)n(C)c2cc(CNCCc3ccccc3)ccc21
→ 8%	-8%
24) CC=C(C)C(=O)N[C@@H](c1ccccc1)[C@@H](O)C(=O)O[C@H]1C[C@@]2(O)[C@@H](OC(=O)c3ccccc3)[C@@H]3[C@]4(OC(C)=O)CO[C@@H]4C[C@H](O)[C@@]3(C)C(=O)[C@H](OC(C)=O)C(=C1C)C2(C)C
→ .	-15%
25) O=C(N[C@@H](COc1ccc2[nH]c(=O)[nH]c2c1)c1ccccc1)c1cccn(Cc2ccc(F)c(F)c2)c1=O
→ .	?
26) CC(C)(C)c1cc(C=C(C#N)C#N)cc(Br)c1O
→ .	?
27) COc1ccc(C(c2ccc(OC)cc2)C(Cl)(Cl)Cl)cc1
→ .	-10%[116 µM]
28) Cc1ccc(C(C)C)c(OCC(=O)N2CCN(CCc3ccncc3)CC2)c1
→ ?	-16%
29) NCC1(CC(=O)O)CCCCC1
→ .	-2%&-9%
30) CC[C@H]1C[C@@H]2C[C@H]3c4[nH]c5ccc(OC)cc5c4CCN(C2)[C@@H]13
→ .	-18%[116 µM]
31) CC(Cc1ccccc1)NCc1ccccc1Cl (stereo not drawn)
→ .	2%
32) Cc1cc(OCC(=O)N2CCN(CCc3ccncc3)CC2)cc(C)c1Cl
→ -15%	-27%
33) C#CC1(O)CCC2C3CCC4=CC(=O)CCC4(C)C3CCC21C (stereo not drawn)
→ .	-11%
34) CCOc1ccc2nc(NC(=O)c3cccn(Cc4ccccc4)c3=O)sc2c1
→ -12%	-6%
35) CCOc1ccc(CN(CCc2ccc3c(c2)OCO3)Cc2ccc(CC)cc2)cc1
→ ?	-14%
36) Cc1ccc(Cn2cccc(C(=O)Nc3nc4ccc(C)cc4s3)c2=O)cc1
→ 14%	-35%
37) O=[N+]([O-])c1ccc([As](=O)(O)O)cc1
→ .	3%
38) Clc1ccc(CCC(Cn2ccnc2)Sc2c(Cl)cccc2Cl)cc1 (stereo not drawn)
→ .	?

Numbers 34 through 35, reprinted for reference:
Results follow in this order: PMP22 txn	HTT promoter inh
34) CCOc1ccc2nc(NC(=O)c3cccn(Cc4ccccc4)c3=O)sc2c1
→ -12%	-6%
35) CCOc1ccc(CN(CCc2ccc3c(c2)OCO3)Cc2ccc(CC)cc2)cc1
→ ?	-14%

Given field by field: part of the list above
34) CCOc1ccc2nc(NC(=O)c3cccn(Cc4ccccc4)c3=O)sc2c1
  PMP22 txn: -12%
  HTT promoter inh: -6%
35) CCOc1ccc(CN(CCc2ccc3c(c2)OCO3)Cc2ccc(CC)cc2)cc1
  PMP22 txn: ?
  HTT promoter inh: -14%
36) Cc1ccc(Cn2cccc(C(=O)Nc3nc4ccc(C)cc4s3)c2=O)cc1
  PMP22 txn: 14%
  HTT promoter inh: -35%
37) O=[N+]([O-])c1ccc([As](=O)(O)O)cc1
  PMP22 txn: .
  HTT promoter inh: 3%

Some of the compounds tested; count on the stated rates, not on these rows.
